# hNpr1 antagonist: Natriuretic polypeptide receptor (hNpr1) antagonism - Primary qHTS; Atrial natriuretic peptide receptor 1 (Homo sapiens), P16066; HEK293 hNpr1 GloSensor cGMP, ANP-stimulated luminescence; Potency, µM (titrated, usually from 46.3 µM), for inactives: at the highest dose activity change, negative = inhibition, usual class: inhibitors; actives 1.6% (n = 76,000); AID 1347048, 2019; active = well fitted inhibition curve with a large enough effect; inconclusive = small, poorly fitted or top-dose-only effect; inactive = no such curve, though single readings can be large or run the other way;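 note: nearly all actives have a fitted effect of over 60% in size; nearly all hits also lower the signal before the agonist is added; a reference antagonist and vehicle were the controls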
# Target sequence (P16066 whole entry, looked up): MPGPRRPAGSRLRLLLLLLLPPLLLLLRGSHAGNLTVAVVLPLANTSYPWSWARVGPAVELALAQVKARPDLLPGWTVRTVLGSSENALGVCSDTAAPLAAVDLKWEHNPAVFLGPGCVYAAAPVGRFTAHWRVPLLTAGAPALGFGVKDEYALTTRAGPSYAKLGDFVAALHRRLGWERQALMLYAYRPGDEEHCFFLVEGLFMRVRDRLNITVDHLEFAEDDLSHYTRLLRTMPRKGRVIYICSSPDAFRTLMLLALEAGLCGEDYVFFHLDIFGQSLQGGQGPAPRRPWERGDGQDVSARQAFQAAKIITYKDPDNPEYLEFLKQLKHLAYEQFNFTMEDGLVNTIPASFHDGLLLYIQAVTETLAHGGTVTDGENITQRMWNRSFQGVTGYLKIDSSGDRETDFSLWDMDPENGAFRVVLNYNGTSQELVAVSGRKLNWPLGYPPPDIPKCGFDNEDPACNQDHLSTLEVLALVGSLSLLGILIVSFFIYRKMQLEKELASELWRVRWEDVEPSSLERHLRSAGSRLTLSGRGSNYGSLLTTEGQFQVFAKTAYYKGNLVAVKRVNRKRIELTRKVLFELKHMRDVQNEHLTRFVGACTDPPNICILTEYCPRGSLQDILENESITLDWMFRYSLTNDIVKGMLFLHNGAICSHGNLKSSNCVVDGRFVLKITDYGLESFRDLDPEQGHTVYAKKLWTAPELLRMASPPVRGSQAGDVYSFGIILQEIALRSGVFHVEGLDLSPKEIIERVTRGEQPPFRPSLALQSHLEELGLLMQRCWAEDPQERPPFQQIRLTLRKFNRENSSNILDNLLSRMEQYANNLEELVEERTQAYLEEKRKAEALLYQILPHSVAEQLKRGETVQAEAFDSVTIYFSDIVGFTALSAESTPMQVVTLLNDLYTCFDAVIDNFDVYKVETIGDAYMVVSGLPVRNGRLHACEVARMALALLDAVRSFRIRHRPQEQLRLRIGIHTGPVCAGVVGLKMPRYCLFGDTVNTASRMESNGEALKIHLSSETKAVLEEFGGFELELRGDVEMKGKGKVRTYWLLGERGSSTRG
#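 Compound pre-incubated 30 min at room temperature on GloSensor-loaded HEK293 cells stably carrying hNpr1 and the pGS-40F cGMP biosensor. Stimulation uses hNppA at 0.1 nM final; luminescence is taken at baseline and 20 min post-agonist.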
# * = called active by the depositor; u = inconclusive; [ ] = remark or other dose. % is set by controls: 0 for no effect and ±100 for the full control effect; potency is the fitted concentration of half-maximal effect. The list is partial, so the mix of outcomes need not match the whole.
SMILES,hNpr1 antagonist
COc1ccc(-c2cc(N3CCCC(NC(=O)c4ccncc4)C3)n[nH]2)cc1 (centres undefined),-4%
Cn1nc2n(c1=O)CCN(C1CCSCC1)CC2,3%
CN1c2cc(C(=O)N3CCOCC3)ccc2OCC1CC(=O)NC(C)(C)C (centres undefined),-1%
COc1ccc(C(=O)NCCC2CCN(C(=O)Nc3ccc(C)cc3)CC2)cc1,-21%
COc1ccc(NC(=O)c2cc3c(N(C)Cc4ccccc4)nc(C)cn3n2)cc1OC,16%
Cc1ccc(S(=O)(=O)N(C)Cc2cccc(C(F)(F)F)c2)cc1,-5%
CN1C(=O)c2cncnc2OCC1CNC(=O)Cc1cccs1 (centres undefined),5%[70.6 µM]
COc1ccc(C(=O)N2CCC3(CC2)C(OC)C(=O)N3CC2CC2)cn1 (centres undefined),1%
Cc1cn2nc(C(=O)Nc3ccccc3F)cc2c(N(C)Cc2ccccc2)n1,15%
CCN1C(=O)CCC2(C(=O)N3CCN(Cc4ccc5c(c4)OCO5)CC3)CCCC=C12 (centres undefined),-3%
COc1cc(NC(=O)c2cc3n(n2)CC(c2ccc4c(c2)OCO4)OC3)c(OC)cc1Cl (centres undefined),-16%
Cc1cc(CNC(=O)[C@@H]2CCC[C@@H](NC(=O)C(C)(C)C)CN(C)C(=O)C2)no1,4%[70.6 µM]
Cc1ccc(NC(=O)C2CCN(C(=O)c3ncn4c3COC(c3ccc(F)cc3)C4)CC2)c(C)c1 (centres undefined),-4%
O=C1[C@@H]2C[C@@H](CN2CC2CC2)Oc2ccccc2N1Cc1cccnc1,-17%[70.6 µM]
CCc1nc2c(c(-c3ccc(Cl)cc3)n1)CN(C(=O)c1ccccc1C)CC2,-5%
C=CCNC(=O)Cc1ccc(N(Cc2ccccc2)C(=O)c2ccco2)cc1,-12%
COCC(=O)N[C@H](C)c1c(-c2ccc(F)cc2)noc1C(=O)O,4%[70.6 µM]
CCC(=O)N1CCN(C2CCN(CCOC)C2=O)CC1 (centres undefined),0%
O=C(c1ccc2c(c1)OCO2)N1CC2CC(C1)[C@H]1CCCC(=O)N1C2 (some centres undefined),-11%
CN(C)CC(=O)N1CC(F)(F)C[C@H]1c1nc(-c2ccncc2)no1,2%
O=C(NCc1cccc(Cl)c1)c1ccc(CN2C(=O)NC3(CCOCC3)C2=O)cc1,-24%
Cc1nc(NC2CC(c3nnc(CO)n3C3CC3)C2)c2sccc2n1 (centres undefined),0%
O=C(c1ccc2cc[nH]c2c1)N1CCCC(c2nn[nH]n2)C1 (centres undefined),10%
COCCc1nncn1C1CCN(S(=O)(=O)c2ccc(F)c(C)c2)CC1,0%
CC[C@@H]1[C@@H](NC(=O)c2oc(COc3ccccc3)cc2C)[C@@H]2CCO[C@H]12,0%
O=C(Nc1cccc(-c2ccco2)c1)C1CCN(Cc2ccc(CO)o2)CC1,-15%
CN(C)c1ccc(C(=O)N2CCC(n3cc(-c4nc(C5CC5)no4)nn3)C2)cc1 (centres undefined),0%
COc1cc(OC)cc(C(=O)N2CCC3(CC2)NC(=O)N(c2ccc(F)cc2)N3)c1,-26%
O=C(NC1CCCCC1)N1CCC2(CC1)CC(N(C(=O)c1ccccc1)C1CC1)CCO2 (centres undefined),-15%
Cc1cccc(-n2nc(C)c(CCC(=O)N3CCOCC3)c2Oc2ccc(F)cc2F)c1,-18%
COCc1nc(C2CCCN(C(=O)c3ccc(C)cc3)C2)no1 (centres undefined),0%
Cc1cn2nc(C(=O)NCc3ccccc3C)cc2c(N(C)Cc2ccccc2)n1,0%
CN1[C@@H](c2ccc(Cl)cc2)[C@@H](C(=O)NCCc2cnc[nH]2)C[C@@]1(C)C(=O)O,2%
Cc1c(O)cccc1C(=O)N1CCCC2(C1)C(=O)N(C)c1ccccc12 (centres undefined),4%
Cc1ccc(OCC(=O)N2CCCC(CN3CCCC3)CC2)cc1 (centres undefined),0%
COc1ccccc1CCC(=O)N1CC2CC(C1)[C@H]1CCCC(=O)N1C2 (some centres undefined),1%

# Arranged by formula weight (descending): some entries from above
SMILES,hNpr1 antagonist
CN1[C@@H](c2ccc(Cl)cc2)[C@@H](C(=O)NCCc2cnc[nH]2)C[C@@]1(C)C(=O)O,2%
Cc1c(O)cccc1C(=O)N1CCCC2(C1)C(=O)N(C)c1ccccc12 (centres undefined),4%
COCc1nc(C2CCCN(C(=O)c3ccc(C)cc3)C2)no1 (centres undefined),0%

# Rewritten field by field: entries from further up
Cc1cn2nc(C(=O)NCc3ccccc3C)cc2c(N(C)Cc2ccccc2)n1
  hNpr1 antagonist: 0%
CN1[C@@H](c2ccc(Cl)cc2)[C@@H](C(=O)NCCc2cnc[nH]2)C[C@@]1(C)C(=O)O
  hNpr1 antagonist: 2%
Cc1c(O)cccc1C(=O)N1CCCC2(C1)C(=O)N(C)c1ccccc12 (centres undefined)
  hNpr1 antagonist: 4%
Cc1ccc(OCC(=O)N2CCCC(CN3CCCC3)CC2)cc1 (centres undefined)
  hNpr1 antagonist: 0%

# (cont.)
SMILES,hNpr1 antagonist
COc1cccc(-c2ncc3c(n2)OCCN(Cc2ccccc2)C3=O)c1,u
COC[C@H]1NC(=O)CC[C@H]1C(=O)O,-6%
CC1(c2ccccc2)N(Cc2ncccn2)C(=O)OC12CCN(CCCc1ccccc1)CC2 (centres undefined),0%
C[C@]1(CO)[C@H]2Cc3sc(NC(=O)C4CCCCC4)nc3[C@@H](CC(=O)O)[C@]2(C)CC[C@H]1O,-2%
CCCc1cc(CNC(=O)c2ccc(NC3CCOC(C)(C)C3)nc2)on1 (centres undefined),-1%
CCN(C(=O)CN1C(=O)NC2(CCCCC2)C1=O)c1ccccc1,1%
O=C(CC[C@@H]1CNC(=O)[C@@H]2C[C@H](NC(=O)Nc3cccc(Cl)c3)CN12)NCc1cccnc1,7%
CC1(C)C(=O)N(CCOc2ccccc2)[C@H]2CN(Cc3c[nH]c4ccccc34)C[C@H]2[S+]1(=O)[O-],-4%
O=C(c1ccccc1OCC1CCCN(C2CCCCC2)C1)N1CCCCC1 (centres undefined),-6%
Cc1cccc(NC(=O)CN2C(=O)NC3(CCOCC3)C2=O)c1,2%
CCC(O)Cn1nc(CCOC)nc1-c1ccc(-c2nnn(C)n2)cc1 (centres undefined),2%
Cc1ccccc1C(=O)N1CC(C(=O)NCCc2ccncc2)C2(CCOCC2)C1 (centres undefined),3%

# An excerpt from above in order of their number in hNpr1 antagonist, rising.
smiles,hNpr1 antagonist
COc1ccc(C(=O)NCCC2CCN(C(=O)Nc3ccc(C)cc3)CC2)cc1,-21%
O=C(c1ccccc1OCC1CCCN(C2CCCCC2)C1)N1CCCCC1 (centres undefined),-6%
Cc1cn2nc(C(=O)Nc3ccccc3F)cc2c(N(C)Cc2ccccc2)n1,15%

# More entries follow.
SMILES,hNpr1 antagonist
CC(=O)c1cccc(NC(=O)Cn2c(-c3cnccn3)nc(C)c(C)c2=O)c1,-10%
CN(Cc1ccccc1)Cc1cc(C[C@@H]2CC[C@H](O)[C@@H](CNCc3ccccc3)O2)no1,-1%
Cc1ccn(CCC(=O)N2CC(=O)N(C3CCCCC3)CC(OCc3ccccc3)C2)n1 (centres undefined),3%
C=CCN1CC2(CCC1=O)CCN(C(=O)NC(C)CC)CC2 (centres undefined),16%
c1ccc(-c2noc(-c3cncnc3NC3CCc4ccccc43)n2)cc1 (centres undefined),0%
CC1=C[C@@H](CN2CCOCC2)[C@H](C(C)C)C[C@H]1Cc1nnc(-c2ccc(N(C)C)cc2)o1,-26%
CN(C)C(=O)c1ccnc(-c2nnc3ccc(N4CCCCC4)nn23)c1,-2%[70.6 µM]
O=C1NCCC[C@@H]1NC(=O)[C@@H]1CN(C(=O)c2ccccc2)CCN1C(=O)c1cccc(F)c1,-1%
COc1cccc(-c2cnc3n[nH]c(-c4ccc(F)cc4C)c3n2)c1,-10%[70.6 µM]
O=C(O)CC[C@@H]1CN(CCn2cc(Cl)cn2)CC[C@@H]1N1CCOCC1,3%
CC(C)N(C)Cc1nnnn1CC(=O)NCC1CCCN(c2ncccn2)C1 (centres undefined),-18%
COc1cccc(C(=O)N2C(C(=O)NCC(C)C)COC23CCN(C(=O)c2ccccc2F)CC3)c1 (centres undefined),1%
CC(c1cccs1)N(C)Cc1ccccn1 (centres undefined),0%[70.6 µM]
O=C(c1ccccc1F)N1CCCC(CN2CCOCC2)CC1 (centres undefined),-3%
Cc1cc(C2CCCN2C(=O)c2ccccc2)on1 (centres undefined),2%
COc1ccc(CN2C[C@@H](CO)[C@H](NC(C)=O)C2)cc1Br,1%
O=C(c1ccc(F)c(Cl)c1)N1CCC(Cc2nc(-c3cnccn3)no2)CC1,u
Cc1ccc(NC(=O)Cn2c(N(C)Cc3ccccc3)nc(C)cc2=O)c(C)c1,-13%
Cc1cc(C(=O)N2CCC(c3noc(-c4ccncc4)n3)C2)nn1C (centres undefined),-6%
OC[C@@H]1CN(Cc2cccc(F)c2)C[C@H]1c1nc(-c2ccncc2)no1,-23%
COc1ccc(CN[C@H]2C[C@H]3C(=O)NC[C@@H](CCC(=O)NCc4ccccc4)N3C2)cc1,-2%
CCN1C(=O)CCC2(C(=O)NC(C)C)CCCC=C12 (centres undefined),4%
COCCNC(=O)C1COC2(CCN(C(=O)c3ccccc3F)CC2)N1C(=O)c1cccc(F)c1 (centres undefined),2%
O=C1CCN(S(=O)(=O)c2ccccc2)CCCC(C(=O)NC2CC2)CCN1 (centres undefined),1%
COCCNC(=O)C[C@@H]1c2nc(NC(=O)c3ccc(F)cc3)sc2C[C@@H]2[C@](C)(CO)[C@H](O)CC[C@]21C,1%
COc1cccc(-c2nc(N3CCOCC3)cc3c2CN(CC2CC2)C3=O)c1OC,5%[70.6 µM]
CC(C)(C)CCN1CC(Oc2cccc(C(=O)N3CCCC3)c2)C1,16%
Cc1cc2cc(C(=O)N3CCN(c4ncccc4C#N)CC3)ccc2o1,2%
COCc1noc([C@@H]2CN(Cc3cc(C)nn3C)C[C@H]2C(N)=O)n1,4%
CCCN1C(=O)C(CC(=O)N2CCN(C)CC2)Sc2ncccc21 (centres undefined),1%
COCC1CN(C(C)=O)CC12CCN(Cc1cccn1C)CC2 (centres undefined),15%
O=C(CC1=C2CCCCC2N(Cc2ccccc2)C1=O)N1CCc2ccccc2C1 (centres undefined),0%
COc1ccc(-c2[nH]nc3ncc(C(=O)N4CC(O)C4)nc23)c(C)c1,-3%[70.6 µM]
Cc1noc(C)c1Cn1cc2c3c(cccc31)[C@H](CC(C)C)N[C@H](C(=O)N1CCOCC1)C2,0%
O=C(c1cccc(F)c1F)N1CCOc2ccc(CN3CCN(c4ccccn4)CC3)cc2C1,0%
CSCC(=O)N1C[C@@H](NC(=O)Nc2ccc(F)cc2F)C[C@H]1C(=O)N[C@H](Cc1ccccc1)C(N)=O,-1%
CC(=O)Nc1ccc(Cl)c(C(=O)N(C)Cc2sccc2C)c1,5%
COCCO[C@H]1C(=O)N(C2CCN(Cc3cccc(OC)n3)CC2)[C@H]1c1ccncc1,0%
O=C(NC1CC1)[C@@H]1CN(Cc2ccc(Br)cc2)C[C@H]1CO,-11%
CC(C)NC(=O)C1CCC(=O)N1C1CCN(C(=O)CCC2CCCC2)CC1 (centres undefined),-1%
O=C(COc1ccccc1)NC1CC(=O)N(C2Cc3ccccc3C2)C1 (centres undefined),8%
O=C(O)Cn1ccc2cc(OCc3cccc(-c4cccc(C(F)(F)F)c4)c3)cnc21,3%[70.6 µM]
Cc1ccc(C2(C(=O)NC(C)c3cnc(-c4ccncc4)nc3C)CC2)cc1 (centres undefined),u
COc1ccc(N2CCC(N3CCC4(CCNCC4)C3)CC2)cc1,3%
COc1ccc(NC(=O)c2ccc3c(c2)N(C(=O)c2ccc(F)cc2)CC3)c(C)c1,-7%
O=C1CO[C@H]2CN(Cc3ncc[nH]3)C[C@H]2N1Cc1ccc(F)cc1,6%[70.6 µM]
O=C(NC1CCN(c2cc(-c3ccc(F)cc3)[nH]n2)C1)c1cccnc1 (centres undefined),-13%
CCCN1CCN(C(=O)c2ccc(-c3ccc(N4CCCCC4)nc3)cc2)CC1,-15%
Cn1ccc2cc(-c3ccc4ncn(Cc5ccccn5)c(=O)c4n3)ccc21,-2%[70.6 µM]
Cn1cnc(S(=O)(=O)N2c3ccccc3CC2c2noc(C3CCOCC3)n2)c1 (centres undefined),3%
COC1CCOC2(CCN(C(=O)COc3ccccc3)CC2)C1 (centres undefined),10%
Cc1ccc(CN2CCC(C(=O)N3CCCCCCNC(=O)CC3)CC2)s1,3%
CC(C)c1nc2nccc(-c3ccsc3)n2n1,2%
CCn1cc(S(=O)(=O)N2CCCCC2c2nc(-c3ccncc3)n[nH]2)cn1 (centres undefined),-11%
O=C(c1ccco1)N1CCN(CC2(O)CCNC2)CC1 (centres undefined),1%
Cc1cccc(C(=O)Nc2cccc(C3OC(=O)N(Cc4ccccc4)C3C(=O)NCC(C)C)c2)c1 (centres undefined),-3%
CCC[C@@H]1CN(C(=O)c2ccc(-c3ccc(C)o3)cc2)C[C@H]1NC(C)=O,3%
CCn1nc(C)cc1C(=O)N1CCOC[C@H](Oc2cccnc2)C1,1%[70.6 µM]
C[C@@H](N)C(=O)N1CCC(n2nccc2NC(=O)Nc2cccc(F)c2)CC1,5%
COc1ccc(-c2cc3c(=O)n(CCNC(=O)c4ccc(OC)nc4)ccn3n2)cc1,0%
COc1ccc(-c2cc(N3CCCC(NC(=O)c4cc(Cl)ccc4F)C3)n[nH]2)cc1 (centres undefined),-19%

# Bioassay records: PubChem BioAssay, National Center for Advancing Translational Sciences (NCATS)
